Screening data from PubChem.
AID504770: E. coli YBA685 growth inhibition, screen for V. cholerae RctB inhibitors. E. coli YBA685 rctB-dependent plasmid, OD600 growth, 3 h; stronger effect = lower value. z-score (test concentration not listed). actives 0.27% (n = 130,000);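 active = z-score under -2 on both plates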;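 also: wells of about 30 µL received 100 nL stock; score is relative to mean and SD of the test wells; the first replicate is given; strong numbers were not always called active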
Ba CapD inh: inhibitors of Bacillus anthracis CapD enzyme. purified CapD enzyme, fluorescence intensity read-out; stronger effect = lower value; some hits fall short of the stated cut. z-score (concentration not given with the values). actives 0.23% (n = 140,000);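 active = z-score under -4 in either of two replicates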;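 also: stock transfer was 100 nL into about 40 µL; score is relative to mean and spread of the plate; one replicate is shown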
* hit, by the source's call; . = not tested or not shown; & = joins results of further samples.

Sample of the layout:
SMILES	AID504770	Ba CapD inh
CC/C(=N\NC(C)=O)c1ccc(OC(F)F)cc1	-0.7	.
O=C1CCC(c2ccccc2)=NN1	.	0.16
CC(Cc1ccccc1)NC(=O)C1(c2ccccc2)CCOCC1 (configuration not stated)	.	-0.19
CC(C)=CCC(C)(C)CNc1ccc(C)cc1	0.4	.
CCCNC(=O)CSC1=NS(=O)(=O)c2ccccc2N1	-0.2	0.43

The whole of this part, previewed entries included:
SMILES	AID504770	Ba CapD inh
CC/C(=N\NC(C)=O)c1ccc(OC(F)F)cc1	-0.7	.
O=C1CCC(c2ccccc2)=NN1	.	0.16
CC(Cc1ccccc1)NC(=O)C1(c2ccccc2)CCOCC1 (configuration not stated)	.	-0.19
CC(C)=CCC(C)(C)CNc1ccc(C)cc1	0.4	.
CCCNC(=O)CSC1=NS(=O)(=O)c2ccccc2N1	-0.2	0.43
COC(=O)C1CCN(C2=NS(=O)(=O)c3ccccc32)CC1	0.7	.
C=CCn1c(P(C)(=O)N2CCCCC2)nc2ccccc21 (configuration not stated)	-0.45	.
Cc1ccc(C2CC(=O)c3c(n[nH]c3C)C2)cc1 (configuration not stated)	-0.1	.
N#CCc1ccc(O)cc1	1.6	.
O=c1c(Cc2c(F)cccc2Cl)c(O)ccn1Cc1cccc(Cl)c1	.	-0.3
COc1ccccc1OCCOc1ccc(-c2nc3sc4c(c3c(=O)[nH]2)CCCC4)cc1OC	.	0.52
O=C1Nc2ccccc2O/C1=C\c1ccc(C(=O)NCc2ccco2)cc1	0.5	40
COCCn1c(CCCO)nc2ccccc21	0.45	0.01
Cc1csc2sc(-c3ccnc(SCC(=O)NCc4ccccc4)n3)c(C)c12	-0.5	11
Cc1cc2c(cc1C)/C(=C\C(N)=O)NC(C)(C)C2	-0.55	-0.34
O=C(NCc1ccccc1)C1COc2ccccc2O1 (configuration not stated)	.	-0.12
Cc1nn(-c2cccc(Cl)c2)c2oc(=O)cc(C(F)(F)F)c12	.	-0.81
Cc1ccc(-c2nnc(OCc3ccccc3)c3ccccc23)cc1S(=O)(=O)N(C)C	.	0.6
O=C(COC(=O)C1CCC(=O)N1)Nc1ncc(C(F)(F)F)cc1Cl (configuration not stated)	0	.
O=S(=O)(NCCO)c1ccc2c(c1)C(=NO)c1cc(S(=O)(=O)NCCO)ccc1-2	.	7
CC(C)C1Cc2c(sc3nc(SCc4ccc(Cl)c(Cl)c4)nc(N)c23)CO1 (configuration not stated)	0.35	14
CN1CCC(O)(c2cccs2)C(C(=O)c2cccs2)C1 (configuration not stated)	0.6	0.3
CCOc1ccc(C(=O)N(c2ccc(Cl)cc2)C2C=CS(=O)(=O)C2)cc1OCC (configuration not stated)	-0.1	0.045
Cc1oc2c(C)c(O)c(CN(C)C)cc2c(=O)c1-c1cnn(-c2ccccc2)c1	-0.15	0.76
CC(Sc1nc(N)nc(N)n1)C(=O)NC1(C#N)CCCCC1 (configuration not stated)	-0.4	.

The list continues.
SMILES	AID504770	Ba CapD inh
CCCS(=O)(=O)c1nc2ccccc2n1CCN1CCOCC1	-0.8	.
OC(CNc1nc(C(F)(F)F)nc2ccccc12)c1ccccc1 (configuration not stated)	0.1	.
Nc1ccccc1SC1CC(=O)N(c2ccccc2)C1=O (configuration not stated)	0.6	0.93
COCN(C#N)c1nc(OC)nc(OC)n1	0.95	-0.12
Cc1c(C(=O)Nc2ccccn2)sc2ncnc(N3CCN(c4ccccc4)CC3)c12	.	0.025
CC12CC[C@H]3[C@@H](CCC4(O)C[C@H](O)CCC34/C=N/NC(=O)c3cccnc3)C1(O)CCC2C1=CC(=O)OC1 (some centres not stated)	.	-0.5
CC(C)N(c1ccccc1)c1ccc(NC(=S)NCCN(C)C)cc1	-0.4	.
COc1ccc(CN2CCN(C(=O)OCc3ccc(C(F)(F)F)c(F)c3)CC2)cc1OCc1ccccc1	.	-0.08
CCOC(=O)c1oc2c(O)c(O)ccc2c(=O)c1-c1nncn1-c1ccccc1	-0.45	-2.5
C[C@]12N=c3s/c(=C/c4ccc([N+](=O)[O-])cc4)c(=O)n3C(c3ccccc3O1)C2C(=O)Nc1ccccc1 (some centres not stated)	.	-0.65
COCCN(CCOC)C(=O)NCc1cc(C(F)(F)F)cc(C(F)(F)F)c1	.	-0.33
O=C(NCc1ccc2[nH]c3c(c2c1)CCCC3)c1ccccc1	-0.05	0.09
Cc1ccccc1OCC(=O)Nc1cccc(N2C(=O)c3ccccc3C2=O)c1	2.8	-0.34
COc1ccccc1N1CCN(C(=O)CCCNC(=O)Cn2cnc3sc4c(c3c2=O)CCCC4)CC1	.	-0.14
CC(C)(C)NC(=O)Cn1nnc(-c2cccc(C(F)(F)F)c2)n1	-0.95	.
Cc1ccc(N2C(=O)CSC23C(=O)Nc2ccccc23)cc1C (configuration not stated)	.	-0.27
COc1cc(/C=C2/C(=N)N3N=C(c4ccccc4C)SC3=NC2=O)ccc1OC(=O)c1ccco1	1.7	0.32
O=C(Nc1ccc(N2CCN(c3ccc(C(F)(F)F)cn3)CC2)nc1)c1ccco1	0.75	3.4
C/C(=N\N)c1nnn(-c2nonc2N)c1C	1.7	-0.46
O=C(CCn1c(=S)oc2ccccc21)NC1CCCCC1	-0.5	-0.34
Nc1nc2ccc3c(c2s1)CCCC3	-0.7	.
CCC(=O)c1cc2c(cc1NC(=O)c1cccc(Cl)c1)OCCO2	2	.
O=C(O)c1cc(=O)c2cc(Br)ccc2o1	-0.35	0.56
COc1ccccc1NCN1C(=O)S/C(=C/c2ccc(OC)c(OC)c2)C1=O	.	-0.67
N#Cc1cccc(NC(=O)Nc2cccs2)c1	-3.1*	-0.9

(cont.)
SMILES	AID504770	Ba CapD inh
COc1ccccc1C(=O)N(Cc1ccccc1F)C1CCS(=O)(=O)C1 (configuration not stated)	0.2	-0.35
O=c1cc(CSc2nc(NCC3CCCO3)c3ccccc3n2)nc2ccccn12 (configuration not stated)	.	2.5
Cc1ccc(C(C(=O)O)N2Cc3ccccc3C2=O)cc1 (configuration not stated)	-0.55	-0.005
Cc1ccc(-c2nc(Nc3ccccc3F)sc2C)cc1	0.1	47
N#CCCn1cc(C(=O)O)c(-c2ccc(Cl)cc2)n1	-1	.
FC(F)(F)COc1nc(N2CCOCC2)nc(N(c2ccccc2)c2ccccc2)n1	-0.5	0.42
CCN(CC)CC(=O)Nc1nc2ccc(OC)cc2s1	-0.6	.
O=S(=O)(NCC1CCCO1)c1cc(Cl)ccc1Cl (configuration not stated)	.	0.35
Cc1nn(-c2ccccc2)c(-n2cccc2)c1C(=O)NC(C)c1ccc2c(c1)OCCO2 (configuration not stated)	-0.55	0.16
O=C(COC(=O)c1ccccc1)NC1CCCCC1	0.85	.
CC(C)n1cc(-c2noc(-c3cccs3)n2)c(=O)n(Cc2ccccc2)c1=O	-0.6	0.85
CCCN(CCC)S(=O)(=O)c1ccc(C(=O)NCc2ccc3c(c2)OCO3)cc1	-0.05	-0.17
CN(C)c1cc(C(F)(F)F)cc(C(F)(F)F)c1	.	-0.18
Nc1nonc1-c1nnnn1CC(=O)N1CCOCC1	-0.55	-0.11
O=C(O)c1cc(Cl)ccc1Sc1ccccc1CO	-0.4	-0.11
Cc1ccc(SCc2cn3cccnc3n2)cc1	-0.4	0.16
Nc1cc(Cl)ccc1NCc1ccccc1	0.2	-0.47
CN1C2CCC1CC(NC(=O)Nc1ccc(OC(F)(F)F)cc1)C2 (configuration not stated)	-0.05	0.55
Cc1c(C(N)=O)nnn1-c1ccc(Cl)cc1	-1.1	-0.12
[C-]#[N+]c1ccc(Cl)cc1C(C)S(=O)(=O)c1ccc(C)cc1 (configuration not stated)	-0.75	0.4
CCOc1ccc(NC(=O)C2CC(=O)C(C(=O)OC)=C3C(=O)NCCN32)cc1 (configuration not stated)	0.7	-0.29
O=S(=O)(c1cccc(NC(=S)N2CCN(c3ccc(F)cc3)CC2)c1)C(F)F	1.9	.
CC1(C)CC2CC(C)(CN2C(=O)COC(=O)c2ccc(O)cc2)C1 (configuration not stated)	1.1	.
CCC(=O)NC1=NC(=O)/C(=C/c2cn(C(=O)CC)nc2-c2ccc(F)cc2)S1	.	-0.29
Cc1c(OCc2ccccc2F)ccc2c1OC(C)(C)CC2=O	.	1.7

Additional results follow:
SMILES	AID504770	Ba CapD inh
Cc1ccc(-c2cc(C(=O)O)c3ccccc3n2)o1	-0.3	46
O=C1N=C(N2CCCC2)S/C1=C/c1cccc(Cl)c1	-0.35	-0.7
Cc1cccc(Nc2ccc(-c3ccccc3)nn2)c1	0.95	-0.01
COc1ccc(C(=O)N2CCN(C(C)=O)CC2)cc1	.	-0.4&-0.79
O=C1CC(c2ccccc2Cl)=Nc2ccccc2N1	.	-0.65
CC12CCCC(C(=O)O)(CCC1)C2	0.3	0.65
CCOC(=O)N1CCN(CC(=O)c2ccc3c(c2)CCN3C(C)=O)CC1	-0.05	2.6
COc1cc2ncnc(NC3CCN(Cc4ccccc4)CC3)c2cc1OC	-0.85	3
NC(c1ccccc1)c1ccccc1	-1.9	.
COc1cccc(CNC(=O)CCS(=O)(=O)c2cccs2)c1	1.9	0.45
CC(=O)Nc1ccc(C(C)(C)C)cc1	.	-0.66
CC(=O)Nc1ccc(/C=c2\sc3nc4ccccc4n3c2=O)cc1	0.35	0.42
O=C1Nc2ccccc2S/C1=C/c1ccc(C(=O)N2CCCCC2)cc1	-0.6	0.51
CC(C)(C)NC(=O)c1cccc2c1C(=O)c1ccccc1-2	0.25	-0.2
OC(CN1CCNCC1)Cn1c2ccccc2c2ccccc21 (configuration not stated)	-0.3	.
O=c1[nH]c2ccccc2nc1NN=C1CCN(c2ccc([N+](=O)[O-])cc2)CC1	.	0.29
Cc1ccc(OCCSc2nc3ncnc(N)c3[nH]2)c(C(C)C)c1	.	-0.08
COc1ccc(OC)c(S(=O)(=O)n2c([N+](=O)[O-])cnc2C)c1	.	-0.21
CC12CCC3C(C1)C(C(=O)O2)C(=O)OC3(C)C (configuration not stated)	0.85	0.43
Cc1cc(NC(=O)CSc2nnc(-c3ccco3)o2)no1	-1.7	1.4
CN(C)S(=O)(=O)c1ccc(C(=O)N2C(=O)c3cccc(N)c3C2=O)cc1	-0.55	.
COc1ccc(Cn2[nH]nnc2=S)cc1	-0.7	0.33
Cn1nc(-c2ccccc2)c(CCl)c1Sc1ccc(Br)cc1	.	0.41
CC(C)CN1C(=O)C(O)(c2nnc(-c3ccccc3)o2)c2ccccc21 (configuration not stated)	1.1	.
O=C(O)Cn1nc(-c2ccccc2)c2ccccc21	0.85	6.6

(cont.)
SMILES	AID504770	Ba CapD inh
CCOC(=O)c1ccc(N=C=S)cc1	-2.2*	.
Cc1ccc(NC(=O)COC(=O)c2ccc3c(=O)[nH]c(CN4CCOCC4)nc3c2)cc1C	-1	.
O=C(COc1ccc([N+](=O)[O-])cc1)NNC(=O)c1ccc2n[nH]nc2c1	.	-0.51
CC(C)(C)C(=O)Cn1c(=O)n(Cc2ccco2)c(=O)c2ccc(C(=O)NC3CCCC3)cc21	-0.4	0.71
Cc1cc2cc(CNC(=O)c3ccccc3)ccc2[nH]1	0.95	0.17
C=CCn1c(NCc2ccccc2C)nc2ccccc21	-1.1	-0.52
COC(=O)NCCOc1ccc(C)cc1	-0.55	0.61
CCN(CC)C(=O)Cn1ncc2c3ccccc3n(Cc3ccccc3)c2c1=O	0.75	2.7
C=CCn1c(SCc2nc(N)nc(Nc3ccccc3)n2)nnc1-c1cccc(OC)c1	.	-0.28
COc1ccc(CC(=O)Nc2cccc(-c3nc4cc5ccccc5cc4[nH]3)c2)cc1	0.2	0.14
Cc1ccc(-n2c3c(cc(C(=O)NCc4ccco4)c2=O)C(=O)CCC3)cc1	0.3	.
O=C(Nc1sc2c(c1C(=O)Nc1ccc(Cl)cc1)CCCCC2)c1ccccc1	.	2.5
Cc1ccc(Nc2nc(C)cc(C)n2)c(Br)c1	-0.2	0.32
O=C(CSc1n[nH]c(=O)[nH]c1=O)Nc1ccc(Br)cc1Br	0.8	.
O=C(COc1ccc(Br)cc1)NCC1CCCO1 (configuration not stated)	0.05	-1.3
CC1SC(/N=C/c2ccc(F)cc2)=NNC1=O (configuration not stated)	0.15	-0.61
C1=CCC(CN2CCNCC2)CC1 (configuration not stated)	-0.55	.
COc1ccc(-c2n[nH]c(C)c2Oc2ccccc2)c(O)c1	0.15	0.24
CC1c2cc(O)c(O)cc2CCN1C(=O)C1CC1C(=O)O (configuration not stated)	.	-0.13
O=C(CSc1nc2c(c(=O)n1-c1ccc(F)cc1)SCC2)Nc1ccc(F)cc1	1.1	-1.1
CN(C)c1ccc(NCc2cccc(Br)c2)cc1	-1.1	0.02
CCOc1cc(/C=C2\SC(NC(C)=O)=NC2=O)cc(Cl)c1OC(C)=O	.	0.095
Cc1ccc2c(c1)c(-c1ccccc1)c(-c1ccccc1)n2CC(O)CN1C(=O)CNC1=O (configuration not stated)	1.1	79
O=C(Cc1c[nH]c2ccccc12)N/N=C/c1cccc(C(=O)O)c1	.	0.12
COC(=O)c1cc2oc3ccccc3c2n1CC(=O)N1CCCc2ccccc21	-0.1	0.1
O=C(CSc1ncnc2c1oc1ccccc12)c1cc2c3c(c1)CC(=O)N3CCC2	2.4	.

7 of these compounds in another layout:
molecule | AID504770 | Ba CapD inh
COC(=O)c1cc2oc3ccccc3c2n1CC(=O)N1CCCc2ccccc21 | -0.1 | 0.1
CCN(CC)C(=O)Cn1ncc2c3ccccc3n(Cc3ccccc3)c2c1=O | 0.75 | 2.7
O=C(COc1ccc([N+](=O)[O-])cc1)NNC(=O)c1ccc2n[nH]nc2c1 | . | -0.51
COC(=O)NCCOc1ccc(C)cc1 | -0.55 | 0.61
O=C(CSc1nc2c(c(=O)n1-c1ccc(F)cc1)SCC2)Nc1ccc(F)cc1 | 1.1 | -1.1
O=C(COc1ccc(Br)cc1)NCC1CCCO1 (configuration not stated) | 0.05 | -1.3
Cc1ccc(Nc2nc(C)cc(C)n2)c(Br)c1 | -0.2 | 0.32

The list is partial; rates above refer to the full screens.
